Assay outcomes from PubChem BioAssay.
KCNQ2 pot: potentiators of rat KCNQ2 potassium channel | 0.54% of 310,000 active | O88943 | B-score at 10 µM | CHO-K1 KCNQ2, FluxOR thallium flux fluorescence; active compounds read high;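 active = fluorescence ratio B-score at least 3 SD of library B-scores, with initial fluorescence B-score within 3 SD, cut at about 5.3 in these data; same plate scores as AID 2156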;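 note: B-score of peak minus minimum over baseline fluorescence ratio after K+ and Tl+ stimulus; positive B-score means potentiation of KCNQ2 with more thallium influx and brighter signal; only the inactives scoring about 0 or higher are listed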
Target sequence (O88943 whole entry, looked up): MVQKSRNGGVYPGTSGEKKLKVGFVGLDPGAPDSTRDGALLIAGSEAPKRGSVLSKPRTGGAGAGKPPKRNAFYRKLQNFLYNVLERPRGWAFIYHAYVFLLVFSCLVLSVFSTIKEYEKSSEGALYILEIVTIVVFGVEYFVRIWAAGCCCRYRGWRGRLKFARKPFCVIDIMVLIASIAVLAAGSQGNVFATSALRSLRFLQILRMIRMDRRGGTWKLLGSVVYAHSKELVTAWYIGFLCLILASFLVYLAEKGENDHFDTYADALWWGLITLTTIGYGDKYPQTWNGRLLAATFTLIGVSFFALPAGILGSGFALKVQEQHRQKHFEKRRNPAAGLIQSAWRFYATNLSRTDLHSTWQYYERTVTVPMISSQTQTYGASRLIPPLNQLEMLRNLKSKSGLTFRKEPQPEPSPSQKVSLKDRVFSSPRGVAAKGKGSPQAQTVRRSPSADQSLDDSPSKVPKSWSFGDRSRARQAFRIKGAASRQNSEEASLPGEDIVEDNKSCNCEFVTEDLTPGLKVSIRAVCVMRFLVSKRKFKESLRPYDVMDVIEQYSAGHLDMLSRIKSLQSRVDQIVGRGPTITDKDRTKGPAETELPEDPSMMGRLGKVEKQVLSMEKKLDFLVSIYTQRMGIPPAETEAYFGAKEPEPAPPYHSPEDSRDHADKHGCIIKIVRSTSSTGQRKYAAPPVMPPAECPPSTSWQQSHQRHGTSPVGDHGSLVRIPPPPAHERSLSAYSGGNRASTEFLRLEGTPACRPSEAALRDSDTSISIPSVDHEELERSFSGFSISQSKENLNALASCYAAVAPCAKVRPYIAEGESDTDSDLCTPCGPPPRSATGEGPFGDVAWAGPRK
KCNQ2 pot baseline: recorded beside KCNQ2 pot, whose call it bears; B-score; compound at 10 µM; measured here: initial fluorescence intensity artifact check;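 brightness before thallium and not channel activity; 0 = typical well and far values either way flag optical interference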
An asterisk follows results filed as active; & = joins results of further samples. An excerpt; count on the stated rates, not on these rows.

Compound,KCNQ2 pot,KCNQ2 pot baseline
COc1ccc(CN2CCN(C(=O)c3ccc(CNS(=O)(=O)c4ccc(C)cc4)cc3)CC2)c(OC)c1OC,0.12,1.3
CCn1c(-c2ccc(C)cc2)nn(CC(=O)NCCc2ccccc2)c1=S,0.02,1.9
COc1ccc(N(CC(=O)Nc2cccnc2)S(C)(=O)=O)cc1,1.7,1.3
COc1ccc2cc(C(C)C(=O)N3CCC(C(N)=O)CC3)ccc2c1 (centres undefined),0.33,0.02
NC(=O)C1CCN(C(=O)C2CC(=O)N(c3ccc(F)cc3)C2)CC1 (centres undefined),1.3,2.4
O=C(NCC(c1ccc(F)cc1)N1CCOCC1)c1c(F)cccc1F (centres undefined),0.65,-0.47
Nc1c(N2CCN(c3ccccc3)CC2)c2ccccc2oc1=O,0.63,0.9
CC(=O)Nc1ccc(NC(=O)c2ccccc2N(C)S(=O)(=O)c2ccc(C)cc2)cc1,0.02,-0.53
COc1ccc(NC(=O)CSc2nc(NS(=O)(=O)c3ccccc3)cc(=O)[nH]2)cc1,0.77,0.71
O=C(NCCCl)NNc1c(Cl)cc(Cl)cc1Cl,0.67,0.86
Cc1cc(C)n(-c2nc(NCc3cccnc3)c3c4c(sc3n2)COC(C)(C)C4)n1,0.8,-0.6
COC(=O)c1cc(Br)c(=O)n(Cc2ccco2)c1,0.62,-0.07
Cc1ccc(NC(=O)c2nnn(CC(=O)Nc3ccc4c(c3)OCO4)c2N)cc1C,0.47,0.14
Cc1ccc(C(=O)OCN2C(=O)c3ccccc3C2=O)cc1S(=O)(=O)N1CCOCC1,2.3,-2.7
CCC(C)(C)NC(=O)C(c1ccccc1F)N(Cc1ccco1)C(=O)Cn1nnc2ccccc21 (centres undefined),0.92,-1.1
Nc1ccc(S(=O)(=O)Nc2cnc3ccccc3n2)cc1,0.42,0.77
O=C(NC1(O)C(=O)c2ccccc2C1=O)c1c(Cl)cccc1Cl,1.5,0.4
COCc1cc(C)nc(SCC[N+](C)(C)CC(=O)Nc2cccc(C(F)(F)F)c2)c1C#N,0.98,-0.62
CCc1ccc(OCCCC(=O)NCc2ccco2)cc1,0.58,-0.45
Cc1ccc(-n2nc3ccc(N)cc3n2)cc1C,0.93,-1.3
Cc1ccc(S(=O)(=O)c2nnn3c2nc(Nc2cccc(C)c2)c2ccccc23)cc1,0.65,-0.67
CCC(C)[C@H](NC(=O)N1CC(=O)Nc2ccccc21)C(=O)N[C@H](C(=O)O)c1ccccc1 (some centres undefined),0.42,0.01
COc1ccc(C(=O)Nc2nnc(S(=O)(=O)Cc3ccc(F)cc3)s2)cc1,0.37,-0.25
COC(=O)c1cc(Br)ccc1NC(=O)Nc1ccccc1,0.6,1.1
CC(C)NC(=O)CCCOc1ccc(Cl)cc1Cl,0.08,0.33
CCCCn1c(SCc2nc(N)nc(Nc3ccccc3C)n2)nc2ccccc2c1=O,1.2,-0.1
Cc1ccc2sc(NC(=O)CN3C(=O)c4ccccc4C3=O)nc2c1C,0.61,-1.3
Cc1nnc(SCC(=O)c2ccccc2F)n1Cc1ccccc1,0.58,-0.69
O=C(O)Cc1nn(Cc2ccc(Cl)cc2)c(=O)c2ccccc12,1.8,-0.15
O=C(Nc1ccccc1)N1CCN(c2nc3ccccc3s2)CC1,0.88,3.3

Three entries out of the list, arranged by formula weight, rising:
Compound,KCNQ2 pot,KCNQ2 pot baseline
Cc1ccc(-n2nc3ccc(N)cc3n2)cc1C,0.93,-1.3
Cc1nnc(SCC(=O)c2ccccc2F)n1Cc1ccccc1,0.58,-0.69
CC(=O)Nc1ccc(NC(=O)c2ccccc2N(C)S(=O)(=O)c2ccc(C)cc2)cc1,0.02,-0.53

(continued)
Compound,KCNQ2 pot,KCNQ2 pot baseline
Cc1c(C(=O)NCc2cccnc2)oc2c1C(=O)CC(C)(C)C2,0.21,-0.71
O=C(COc1cccc(Oc2ccccc2)c1)Nc1ccc(SC(F)F)cc1,0.89,-1.3
C=CCn1c(N)c(-c2nc3ccccc3n2C)sc1=S,1.3,2
CC(=O)c1sc(NC(=O)CCNC(=O)c2ccco2)nc1-c1ccccc1,2,0.12
O=[N+]([O-])c1ccc(O)c(/C=N/NC(=S)Nc2ccc(Cl)cc2Cl)c1,0.44,-0.01
O=C(Nc1ccc([N+](=O)[O-])cn1)c1ccc(Br)o1,0.77,1.7
O=[N+]([O-])c1ccc(S(=O)(=O)Nc2ccc3c(c2)OCCO3)cc1,0.6,-0.31
O=C(c1ccccc1)c1cnc(Nc2ccc(Cl)c(Cl)c2)s1,0.53,-2.1
c1ccc(C2(c3ccccc3)OCC(Cn3cncn3)O2)cc1 (centres undefined),0.67,-1.1
O=C1NCCN1CCNS(=O)(=O)c1cc(C(F)(F)F)cc(C(F)(F)F)c1,1.3,0.64
O=C(COc1ccc(Cl)cc1Cl)NCc1ccco1,0.01,5.2
CC(=O)c1cccc(NC(=O)c2cc(C)no2)c1,0.18,-0.24
CCN(CC)S(=O)(=O)c1ccc(C)c(NC(=O)COC(=O)CNC(=O)c2ccc(C(C)(C)C)cc2)c1,0.72,-1.4
COCCSc1nnc(NC(=O)c2ccc(NC(=O)C(C)C)cc2)s1,1.1,0
Cc1ccc(C)c(NC(=O)CSc2nnc(C3CCCCC3)o2)c1,0.61,0.1
C=CCOc1ccc(/C=N/NC(=O)C(C)Sc2ccccn2)cc1OCC (centres undefined),0.94,-2.1
COC(=O)c1ccc(NC(=S)N2CCCC2)cc1,0.74,-0.02
CCCCCCc1cc2cc(C(=O)OCC)c(=O)oc2cc1O,0.1,0.76
CCOC(=O)C1=C(COC(=O)c2ccccc2OC(F)F)NC(=O)NC1C (centres undefined),1.1,-0.24
C#CCSc1nnc(-c2c[nH]c3ccccc23)n1C,2.1,0.55
c1ccc(Nc2nc(NCCN3CCOCC3)nc(Nc3ccccc3)n2)cc1,0.03,-0.33
COc1ccc(C(=O)OCC(=O)Nc2cc(C)on2)c(OC)c1OC,0.14,1
N#Cc1c(N)nc2c(c1-c1ccc(F)cc1)c(=O)nc1sccn12,0.45,1.4
Cc1ccc(C(C)NC(=O)c2ccncc2)cc1C (centres undefined),1,1.1
Cc1c(C(=O)NC(=S)Nc2ccc(NC(=O)c3cccs3)cc2)cccc1[N+](=O)[O-],0.77,-0.36
O=c1cc[nH]c2ccc(Cl)cc12,1.4,-0.32
CN(C)S(=O)(=O)c1ccc(C(=O)N2CCN=C2SCc2ccccc2)cc1,0.5,-0.36
CC(=O)Nc1cccc(C(=O)OC2CCOC2=O)c1 (centres undefined),0.91,1.1
COc1ccc(C(=O)N2CCN(C3CCN(Cc4ccccc4)CC3)CC2)cc1OC,0.05,-1.2
Nn1c(Nc2ccc(Cl)cc2)nncc1=O,0.04,2.3

Other structures follow:
Compound,KCNQ2 pot,KCNQ2 pot baseline
Cc1cc2oc(=O)cc(CSc3nc(N)cc(N)n3)c2cc1C,1.9,0.56
Cc1onc(COc2ccccc2O)c1Br,1.3,1.6
CCOC(=O)c1ccc(NC(=O)CN2C(=O)NC3(CCCCCC3)C2=O)cc1,1.3,0.04
CC(C)N(CCNC(=O)c1cn(C)c2ccc(S(=O)(=O)N(C)C)cc2c1=O)Cc1ccccc1,0.38,-0.72
CCOc1ccc(-c2nnc(-c3ccco3)o2)cc1OCC,1.8,-1.2
Cc1ccc(NC(=O)c2ccc(CSc3ccccn3)cc2)c(O)c1,0.1,-1.2
COc1ccc(C(C(=O)NC(C)(C)C)N(CCO)C(=O)CCC(=O)Nc2cc(C)on2)cc1 (centres undefined),0.56,1.7
CCC(C(=O)NCCCN1CCCC1=O)n1c2ccccc2c2nc(=O)cc(C)n21 (centres undefined),1.3,-0.08
COc1cc(C(=O)OCC(=O)Nc2cc(C)on2)cc(OC)c1OC,1.7,-0.19
O=C(CN1CCN(c2ncccn2)CC1)Nc1ccccc1-n1cccc1,0.11,0.12
O=c1n(Cc2ccccc2)c2cc(Cl)cnc2n1Cc1ccccc1,0.85,3
CC(=O)Nc1ccc(S(=O)(=O)NCC(CCC(=O)O)C(F)(F)F)cc1 (centres undefined),0.74,2.7
COC(=O)c1cn(NC(=O)Cc2cccc(C(F)(F)F)c2)c(=O)c2ccccc12,3.5,-0.22
CC(=O)c1cccc(N(C(=O)CS(=O)CC(=O)Nc2ccc(F)cc2)C(C(=O)NC2CCCCC2)c2ccc(C)o2)c1 (centres undefined),0.76,-0.95
COc1ccc(C(=O)/C=C/c2cc(C(=O)O)cc3c2OCOC3)c(O)c1,2.1,1.4
CN(C)C(=O)c1ccc(NC(=O)c2cccnc2)cc1,0.73,-1.9
Cc1ccc(C)c(/C(O)=C2/C(=O)C(=O)N(CCN3CCOCC3)C2c2ccco2)c1 (centres undefined),1.3,1.2
O=C(Cc1ccccc1)Nc1ccccc1C(=O)NCC1CCCO1 (centres undefined),1.9,-0.76
N#CCCN1CCN(S(=O)(=O)c2ccc(S(=O)(=O)NC3CCCC3)cc2)CC1,1.3,-0.23
O=C(O)c1cc(-c2ccc(Cl)s2)[nH]n1,0.45,0.16
CCOc1ccc2nc(N3CCCCCC3)sc2c1,1,-0.06
CCCCCN(C(=O)CCC(=O)OCC(=O)N(CC)c1ccccc1)c1c(N)n(CCCC)c(=O)[nH]c1=O,0.15,-0.32
CC1(c2ccc([N+](=O)[O-])c(CS(=O)(=O)c3ccccc3)c2)OCCO1,0.01,0.15
CCOc1ccc(S(=O)(=O)N(C)CC(=O)NC2CCCC2)cc1,0.05,-0.42
COc1cc(O)c(C(CC(=O)N2CCN(c3ccccc3)CC2)c2ccc3c(c2)OCO3)c(OC)c1 (centres undefined),1.1,1.8
COCc1nc(-c2ccc(-c3ccc(OC)cc3)nc2OC)no1,1.4,-2.3
COc1ccc(-c2cn(-c3ccccc3)c3[n+]2CCS3)cc1,0.14&0.27,1.6&1.2
CCC(C)c1ccccc1NC(=O)Cc1coc2cc3c(cc12)CCC3 (centres undefined),7.7*,0.43*
Cc1ccc(S(=O)(=O)c2nnn3c2nc(N2CCOCC2)c2ccccc23)cc1C,0.78,-0.15
O=C(COc1ccccc1)Nc1nnc(-c2ccccc2)o1,3.2,-0.4

In the list so far, 3 have a thiophene ring, fused or not.
Compound,KCNQ2 pot,KCNQ2 pot baseline
Cc1cc(C)n(-c2nc(NCc3cccnc3)c3c4c(sc3n2)COC(C)(C)C4)n1,0.8,-0.6
Cc1c(C(=O)NC(=S)Nc2ccc(NC(=O)c3cccs3)cc2)cccc1[N+](=O)[O-],0.77,-0.36
O=C(O)c1cc(-c2ccc(Cl)s2)[nH]n1,0.45,0.16

More results:
Compound,KCNQ2 pot,KCNQ2 pot baseline
Cc1ccc(N(Cc2cc3ccccc3[nH]c2=O)S(C)(=O)=O)cc1,0.14,-0.79
CC(C)CN(C(=O)CN1CCN(c2cccc(Cl)c2)CC1)c1c(N)n(CC(C)C)c(=O)[nH]c1=O,1.8,-1.5
O=C(/C=C/c1ccc([N+](=O)[O-])cc1)NCCc1ccccc1,0.13,2.3
O=C(CSc1nnnn1-c1ccc2c(c1)OCCO2)N1CCN(C(=O)c2ccco2)CC1,0.35,-0.02
Cc1c(NC(=S)NC(NC(=O)CC(C)C)C(Cl)(Cl)Cl)c(=O)n(-c2ccccc2)n1C (centres undefined),0.52,0.01
O=C(CCn1c(=O)oc2ccccc21)Nc1ccc2c(c1)OCCO2,0.28,-1.2
Cc1noc2ncnc(N3CCCCC3)c12,0.02,0.92
COc1ccc(CCC(=O)Nc2nc3ccccc3[nH]2)cc1,0.64,0.35
CC(CN(C)Cc1ccccc1)OC(=O)C1COc2ccccc2O1 (centres undefined),1.5,-0.98
Cc1cccc(C(=O)Nc2ccc(NC(=O)CN3CCOCC3)cc2)c1,0.97,-1.2
Cn1c2ccccc2c2nnc(SCC(=O)Nc3ccccc3F)nc21,1.6,-0.05
Cc1nnc(SCC(=O)NCc2ccc3c(c2)OCO3)s1,0.67,-0.45
COc1cc(/C=C2/C(=O)N(C)C(=S)N2C)ccc1OCc1cccc(F)c1,1.7,0.2
CC(=O)Nc1ccc(NC(=S)Nc2ccccc2)cc1,0.02,0.02
CN(CCCN1CCCCC1)C(=O)CCc1nnc(C2CCCCC2)o1,0.19,-0.12
COc1ccc(C(=O)Nn2c(C)nc3ccccc3c2=O)cc1Br,0.76,-0.25
CCn1cc(C(=O)O)c(=O)c2cc(F)c(N3CCN(C(=S)NC(=O)c4cc(OC)cc(OC)c4)CC3)cc21,1.6,-0.13
CCOc1ccc(-n2c(Cc3cc(=O)[nH]c(=O)[nH]3)nnc2SC(C)C)cc1,0.01,-1.5
CCOC(=O)CCC(=O)NCc1ccc2[nH]c(C)cc2c1,0.97,0.18
CC(C)[C@@H](NC(=O)C1CCN(C(=O)[C@@H]2CCCN2C(=O)OC(C)(C)C)CC1)C(=O)NCc1ccc(F)cc1,0.59,0.56
COc1ccc(-n2c(=O)c3ccccc3n(CC(=O)Nc3cccc(OC)c3)c2=O)cc1,0.84,0.49
O=C(Nc1nc2ccc(S(=O)(=O)N3CCCCC3)cc2s1)c1ccncc1,0.7,-1.8
CCOC(=O)C(C)Sc1nc(N)c(NC(=O)c2ccc(OC)c(OC)c2)c(=O)[nH]1 (centres undefined),0.27,0.1
Cc1cccc(NC(=S)NCc2ccc3c(c2)OCO3)c1C,2,-0.18
COc1ccc(C)cc1NC(=O)C1CC(=O)N(Cc2ccco2)C1 (centres undefined),2,-0.05
